Screening results: PubChem, Johns Hopkins Ion Channel Center
CHT block: inhibits the human high affinity choline transporter; Q9GZV3; CHT-expressing cells, membrane potential dye, choline response; hits give low values; B-score at 10 µM; 310,000 compounds, 0.86% hits; AID 488975;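 active = B-score over 3 SD under the library average, and starting fluorescence ratio not unusually high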;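 also: choline stimulus applied at its EC90 after an EC20 pre-addition; B-score computed on integrated fluorescence ratio after choline addition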
Target sequence (Q9GZV3 whole entry, looked up): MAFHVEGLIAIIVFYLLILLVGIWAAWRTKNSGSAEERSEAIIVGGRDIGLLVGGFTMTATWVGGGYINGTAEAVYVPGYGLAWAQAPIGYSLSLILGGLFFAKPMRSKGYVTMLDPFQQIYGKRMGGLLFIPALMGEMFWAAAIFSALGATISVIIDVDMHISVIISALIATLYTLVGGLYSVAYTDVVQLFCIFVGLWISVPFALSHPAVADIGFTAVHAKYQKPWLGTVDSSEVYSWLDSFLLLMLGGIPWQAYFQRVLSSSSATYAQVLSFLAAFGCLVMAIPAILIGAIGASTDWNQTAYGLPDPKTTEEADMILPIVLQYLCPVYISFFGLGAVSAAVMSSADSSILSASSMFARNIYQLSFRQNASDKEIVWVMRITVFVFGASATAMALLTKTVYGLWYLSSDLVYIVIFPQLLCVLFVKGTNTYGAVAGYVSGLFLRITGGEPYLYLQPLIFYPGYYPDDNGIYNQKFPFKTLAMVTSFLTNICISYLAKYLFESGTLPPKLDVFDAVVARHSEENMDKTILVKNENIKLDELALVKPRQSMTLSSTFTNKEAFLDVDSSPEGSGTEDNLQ
Calls only; i = inactive. Not all compounds are listed; most or all hits stand in other tables.

Preview (5 entries):
SMILES	CHT block
O=C(NC(=S)NNS(=O)(=O)c1ccccc1)c1ccccc1[N+](=O)[O-]	i
CCOc1ccc(OCc2ccc(C(=O)N3CCc4ccccc4C3)o2)cc1	i
CC(C)C(c1nnnn1Cc1ccccc1)N1CCC(C(N)=O)CC1 (centres undefined)	i
CCn1c(CSc2nnc(-c3ccncc3)n2C)nc2cc(C(=O)O)ccc21	i
O=C(O)c1cccc(S(=O)(=O)Nc2cccc(S(=O)(=O)N3CCCCCC3)c2)c1	i

All compounds of this part, from the start:
SMILES	CHT block
O=C(NC(=S)NNS(=O)(=O)c1ccccc1)c1ccccc1[N+](=O)[O-]	i
CCOc1ccc(OCc2ccc(C(=O)N3CCc4ccccc4C3)o2)cc1	i
CC(C)C(c1nnnn1Cc1ccccc1)N1CCC(C(N)=O)CC1 (centres undefined)	i
CCn1c(CSc2nnc(-c3ccncc3)n2C)nc2cc(C(=O)O)ccc21	i
O=C(O)c1cccc(S(=O)(=O)Nc2cccc(S(=O)(=O)N3CCCCCC3)c2)c1	i
Cc1ccc(-n2cnc(N)c2C(=O)c2cccc([N+](=O)[O-])c2)cc1	i
CCSc1ccccc1C(=O)NCc1ccc2c(c1)OCO2	i
CCC(C)n1c(=S)[nH]c2ccccc2c1=O (centres undefined)	i
COC(=O)c1ccccc1NC(=O)Nc1ccc(C(=O)N2CCCC2)cc1	i
CCc1cc2cc3c(cc2nc1SCC(=O)Nc1nnc(C)s1)OCCO3	i
Cc1cc(=O)[nH]c(SCC(=O)N2CCN(S(=O)(=O)c3ccccc3)C2)n1	i
Cc1ccc(C2(C)NC(=O)N(CC(=O)Nc3ccccc3C(=O)N3CCCCC3)C2=O)cc1 (centres undefined)	i
C/C(Cc1ccccc1)=N\NC(=O)CNC(=O)c1ccccc1Br	i
O=C(O)CCC(=O)Nc1ccc(Br)cc1C(=O)c1ccccc1Cl	i
O=C(NCc1ccccc1)/C(=C\c1ccc([N+](=O)[O-])cc1)NC(=O)c1ccco1	i
CN(C)/C=N/c1nc2nccc(-c3ccccc3)n2n1	i
COc1ccc(C(=S)N2CCN(c3cccc(Cl)c3)CC2)cc1	i
N#C/C(=C\c1ccncc1)c1nc2c(s1)CCCC2	i
COc1cc(C(=O)NC2CCCCC2)ccc1OC1CCN(C(C)=O)CC1	i
CCSc1nc(-c2ccccc2)c(-c2ccccc2)n1CC(O)CO (centres undefined)	i
CCc1cc(=O)oc2c3c(cc(OCC(=O)NCCC(=O)O)c12)OC(C)(C)CC3	i
Nc1cccc2c1C(=O)N(Cc1cccc(Cl)c1)C2=O	i
O=C(NCCC(=O)N(CCc1ccccc1)Cc1ccccc1)c1ccc(Br)cc1	i
CC1=C(C)C(=O)N(c2ccc(C(=O)O)cc2)C1=O	i
Cc1nn(CC(=O)NC2CCC(C)CC2)c(=O)c(C#N)c1C (centres undefined)	i
Carrying on.
SMILES	CHT block
CCN1CCN(CC(=O)NC2CCCC2)C(=O)C1=O	i
CCOC(=O)N1CCN(C(=O)c2ccccc2NC(=O)c2ccccc2Cl)CC1	i
Cn1cc([N+](=O)[O-])c(C(=O)N2CCCCCC2)n1	i
Cc1ccc(C)c(N2CCN(C(=O)CCCCn3c(=O)[nH]c4ccccc4c3=O)CC2)c1	i
Cc1n[nH]c(=O)c2c(NC(=O)CSc3nc4ccccc4c(=O)n3CCCOC(C)C)oc(C)c12	i
CC(Nc1nc(-c2ccc(Cl)cc2)cs1)c1nc2cc(Cl)c(N3CCCCC3)cc2n1CCOCCO (centres undefined)	i
COC/C=C/C1=CC2=CC(=O)C(C)(OC(=O)CCC(=O)OC)C(=O)C2=CO1 (centres undefined)	i
COc1cccc(C(C(=O)NC(C)(C)C)N(CC(C)C)C(=O)CCC(=O)Nc2cc(C)on2)c1OC (centres undefined)	i
Cc1nc2sccn2c(=O)c1S(=O)(=O)NCc1ccccc1	i
O=C1C(SC(F)(F)C(F)F)=C(C(F)(F)F)OC2C3C=CC(C3)C12 (centres undefined)	i
Cc1nn(-c2ccccc2)c2sc(-c3nnc(SCC(=O)O)o3)cc12	i
CCOC(=O)C(NC(C)=O)C(OC(C)=O)c1cccc([N+](=O)[O-])c1 (centres undefined)	i
O=C(Cc1ccc(Cl)c(Cl)c1)Nc1cccnc1	i
CC12CCC(C(=O)NNC(=O)c3ccc(F)cc3)(OC1=O)C2(C)C (centres undefined)	i
COC(=O)/C(N=Nc1c(C)n(C)n(-c2ccccc2)c1=O)=C(\C)O	i
Cc1cc(C)cc(NC(=S)N(Cc2cccc(Br)c2)CC2CCC(C(=O)O)CC2)c1 (centres undefined)	i
CCC1CCCCN1CCCNC(=O)CN1C(=O)c2cccnc2Oc2ccc(Cl)cc21 (centres undefined)	i
O=C(C1CCN(S(=O)(=O)c2cccc3cccnc23)CC1)N1CCc2ccccc21	i
O=C(CN(C(=O)c1csnn1)c1cccc(Cl)c1)NC1CCCCC1	i
O=C1CCC/C(=N\NC(=O)c2ccc(CSc3cccc4cccnc34)cc2)C1	i
O=C(CCc1ccccc1)N1N=C(c2ccncc2)CC1(O)C(F)(F)F (centres undefined)	i
Cc1cnc(NC(=O)CCNC(=O)c2ccc([N+](=O)[O-])cc2)s1	i
CCc1nnc(SCc2ccc(OC)c(Br)c2)n1N	i
CC(C)Oc1ccc(C(=O)OC(C)C(=O)Nc2nc(-c3cccc([N+](=O)[O-])c3)cs2)cc1 (centres undefined)	i
Cc1nnc(SC(C)C(=O)Nc2ccc(S(=O)(=O)N3CCCCC3)cc2)s1 (centres undefined)	i
Other results
SMILES	CHT block
CC1(C(=O)OCC(=O)N2c3ccccc3Sc3ccccc32)CC1(Cl)Cl (centres undefined)	i
CN(C)c1oc(-c2ccco2)nc1C#N	i
Cc1ccc(S(=O)(=O)CC(=O)c2ccc([N+](=O)[O-])cc2)cc1	i
COc1ccc(N(CC(=O)NCc2ccc(F)cc2)S(=O)(=O)c2c(C)n[nH]c2C)cc1	i
Nc1ccn(Cc2ccc(F)cc2)n1	i
CCOC(=O)[C@H](O)[C@@H](O)c1cccc([C@H](O)[C@@H](O)C(=O)OCC)c1	i
COC(=O)C1=NNC2(c3ccc(C)cc3)C(=O)N(c3cccc(C)c3C)C(=O)C12 (centres undefined)	i
Nc1c(C(=O)OCC(=O)Nc2ccc(Cl)cc2[N+](=O)[O-])[nH]c(=O)[nH]c1=O	i
Cc1ccc2cc3cc(C(=O)N4CCN(C(=O)c5ccco5)CC4)sc3nc2c1	i
O=C(NNc1cccc(Cl)n1)c1ccccc1CC[N+](=O)[O-]	i
COc1cc(C2C=C(C34CC5CC(CC(C5)C3)C4)NC(=S)N2)cc(OC)c1OC (centres undefined)	i
COc1cc(NC(=O)CSc2nccc(=O)[nH]2)c(C)cc1[N+](=O)[O-]	i
COc1ccccc1CCN=C(N)NS(=O)(=O)c1ccccc1	i
CCOC(=O)c1ccc(NC(=O)c2ccco2)cc1	i
COC(=O)c1c(NC(=O)c2c(OC)cccc2OC)sc2c1C(C(=O)OC)CC2 (centres undefined)	i
CC(=O)Nc1ccc(NC(=O)COc2ccc(-c3ccccc3)cc2)cc1	i
NNC(=O)Cn1c(COc2ccc(Cl)cc2)nc2ccccc21	i
O=C(COc1ccc(Br)cc1Cl)c1ccc[nH]1	i
CCC1(Cc2ccccc2)NC(=O)c2ccccc2O1 (centres undefined)	i
COc1cccc(NC(=O)C(=O)N/N=C/c2ccc3c(c2)OCO3)c1	i
CCOc1ccc(N2C(=O)CC(N(CCc3ccc(OC)cc3)C(=O)/C=C/C(=O)O)C2=O)cc1 (centres undefined)	i
Cc1cccnc1NC(=O)c1nn(C)c2c1CS(=O)(=O)c1ccccc1-2	i
CC1=C(C(=O)Nc2ccc(C)cn2)C(c2cnn(C)c2)C2=C(CCCC2=O)N1 (centres undefined)	i
CCOc1ccc(/C=C/C(=O)Nc2ccccc2C(F)(F)F)cc1	i
Cc1cc(NC(=O)COc2ncnc3sc(C)c(C)c23)no1	i

Entries listed so far that have a CF3 group:
SMILES	CHT block
O=C1C(SC(F)(F)C(F)F)=C(C(F)(F)F)OC2C3C=CC(C3)C12 (centres undefined)	i
O=C(CCc1ccccc1)N1N=C(c2ccncc2)CC1(O)C(F)(F)F (centres undefined)	i
CCOc1ccc(/C=C/C(=O)Nc2ccccc2C(F)(F)F)cc1	i

Five neighbouring compounds already listed, quoted:
SMILES	CHT block
CC1(C(=O)OCC(=O)N2c3ccccc3Sc3ccccc32)CC1(Cl)Cl (centres undefined)	i
CN(C)c1oc(-c2ccco2)nc1C#N	i
Cc1ccc(S(=O)(=O)CC(=O)c2ccc([N+](=O)[O-])cc2)cc1	i
COc1ccc(N(CC(=O)NCc2ccc(F)cc2)S(=O)(=O)c2c(C)n[nH]c2C)cc1	i
Nc1ccn(Cc2ccc(F)cc2)n1	i

(next part)
SMILES	CHT block
O=C(CN(c1ccc([N+](=O)[O-])cc1)S(=O)(=O)c1ccccc1)N1CCCCC1	i
Cc1ccccc1NC(=S)/C(=C(\[O-])c1ccc(C)c([N+](=O)[O-])c1)[n+]1ccccc1	i
C=CCN(CC=C)C(=O)CN1C(=O)c2ccccc2C1=O	i
COc1ccccc1C(=O)NNC(=O)C(=O)Nc1cccc(Cl)c1C	i
CCOC(=O)c1c(C)nc2ccccn12	i
COC(=O)c1sc(S(=O)(=O)NCCC(=O)O)c(C(=O)OC)c1C	i
CC(=O)NC(CCS(C)(=O)=O)C(=O)Nc1ccc2c(c1)OCCO2 (centres undefined)	i
Cc1nnc(SCc2ccc(Cl)cc2Cl)[nH]c1=O	i
Cc1cc(-c2ccc(Cl)cc2)c(C#N)c(N)n1	i
C#CCOC(=O)C[N+](C)(C)C/C=C/c1ccccc1	i
Cc1ccc(NC(=O)COC(=O)[C@H](C)NC(N)=O)c(C)c1	i
O=C(Nn1cc(C(=O)Nc2ccc(F)cc2F)c2ccccc2c1=O)c1cnccn1	i
COCCCNC(=O)CN(C1CCCCC1)S(=O)(=O)c1ccc(C)cc1	i
COc1cc2c(cc1OC)C(c1ccccc1)N(S(C)(=O)=O)CC2 (centres undefined)	i
Cc1nc(N2CCOCC2)nc(N2CCC(C)CC2)c1[N+](=O)[O-]	i
O=C(CN1C(=O)COc2ccccc21)NCCN1CCC(Cc2ccccc2)CC1	i
CC(=O)Nc1ccc(NC(=O)C(C)OC(=O)CC2CCCC2)cc1 (centres undefined)	i
O=C(O)CSc1nc(C(F)(F)F)cc(=O)n1-c1ccccc1	i
O=C1CC(=O)NC(SCC(=O)Nc2ccccc2[N+](=O)[O-])=N1	i
C=CCNC(=O)c1onc(CSc2ccc(F)cc2)c1C(=O)O	i
COC(=O)C1=C(C)N(Cc2ccco2)C(=O)N[C@@H]1c1ccccc1	i
O=S(=O)(NCC(Nc1ccc(Cl)cc1)c1ccccc1)c1ccccc1 (centres undefined)	i
Cn1c(=O)c2c(SCC(=O)N3CCOCC3)nc(-c3ccccc3Cl)nc2n(C)c1=O	i
Cc1ccccc1C(=O)NC(=S)NCc1cccnc1	i
Cc1ccc(S(=O)(=O)N2CCC(C(=O)OCC(=O)Nc3cc(S(C)(=O)=O)ccc3Cl)CC2)cc1C	i
Following part:
SMILES	CHT block
COc1ccc2c(c1)CC1c3c(cc4c(c3-2)OCO4)CC[N+]1(C)[O-] (centres undefined)	i
COc1ccc(OC)c(S(=O)(=O)N2CCN(CC(O)COc3ccccc3)CC2)c1 (centres undefined)	i
O=c1c2ccccc2c(-c2ccccc2)nn1-c1ccc(Cl)c(Cl)c1	i
COc1cc(NC(=S)NCc2cccnc2)cc(OC)c1	i
NS(=O)(=O)c1ccc(N2C(=O)C(=O)/C(=C(/O)c3ccccc3)C2c2ccc(Cl)cc2)cc1 (centres undefined)	i
Cc1cccc(OCCNc2cc(N3CCOCC3)ccc2[N+](=O)[O-])c1	i
CC(C)NC(=O)Cn1c(=O)n(CC(=O)N2CCCCC2)c(=O)c2sccc21	i
Cc1ccc(NC(=O)CS(=O)CC(=O)N(c2ccc(C)cc2)C(C)C(=O)NC2CCCCC2)cc1 (centres undefined)	i
Nc1nc(CSc2nc3ccccc3[nH]2)nc(N2CCOCC2)n1	i
CCCCNC(=O)c1nn2cc(Br)cnc2c1Br	i
CCOC(=O)C1(Cc2ccc(Cl)cc2)CCN(C(=O)C2CCCO2)CC1 (centres undefined)	i
CCC(C)(C)n1nnnc1C(c1cccc(C#N)c1)N1CCN(c2cc(C)ccc2C)CC1 (centres undefined)	i
CC(C(=O)Nc1ccccc1)C(=O)Nc1ccccc1	i
CCOC(=O)c1[nH]c(C)c(C(=O)N2CCN(c3cccc(Cl)c3)CC2)c1C	i
CCOc1cc(/C=C2\C(=O)N(c3cccc(C(=O)O)c3)N=C2C(F)(F)F)ccc1OCC(=O)Nc1ccccc1OC	i
COc1ccc(OCCCON2C(=O)c3ccccc3C2=O)cc1	i
COc1cccc(/C=N/Nc2ccc(Cl)nn2)c1OC	i
Cc1ccc(OCc2ccc(C(=O)N3CCCC3)o2)c([N+](=O)[O-])c1	i
CC(C)Cc1nnc(NC(=O)CCC(=O)N2CCN(S(=O)(=O)c3ccccc3)CC2)s1	i
Cn1nnnc1SCCNCc1cccnc1	i
CC(C)(C)[C@H]1CCC(=O)N([C@H](CC#N)Cc2ccccc2)CC1	i
CC1(C)[C@H]2CC[C@]1(C)[C@@H](OC(=O)C[N+]1(C)CCOCC1)C2	i
O=C(c1ccc(Cl)cc1)N1CCC(C(=O)N2CCCc3ccccc32)CC1	i
Cc1ccc(C)c(Nc2nc3ccc(C)cc3n3cnnc23)c1	i
CN(Cc1nc2ccc(F)cc2[nH]1)Cc1nc(CC2CC2)no1	i
Remaining list, next part:
SMILES	CHT block
CCN(CC1CCCN(CCc2cccc(F)c2)C1)C(=O)c1cc(C)oc1C (centres undefined)	i
O=C(N/N=C/c1ccc(Cl)c([N+](=O)[O-])c1)C1CC1	i
O=C(O)c1ccc2c(c1)C(=O)N(Cc1ccc3c(c1)OCO3)C2=O	i
O=C(/C=C/c1ccccc1)N/C(=C/c1ccccc1)C(=O)N1CCCCC1	i
NS(=O)(=O)c1ccc(Sc2ccc3c(c2)CCC3)nc1	i
C=CCON1C(=O)C(=O)N(OCC=C)[C@H]2CCCC[C@H]21	i
